VACV mCherry inh: vaccinia inhibition (mCherry reporter); Vaccinia virus mCherry reporter infection, fluorescence; about a quarter of the inactives have no number; Potency, µM (titrated, usually from 36.5 µM), for inactives: top-dose activity change, negative = inhibition, usual class: inhibitors; 310,000 tested, 0.63% active; AID 720579; active = well fitted inhibition curve with a large enough effect; inconclusive = small, poorly fitted or top-dose-only effect; inactive = no such curve, though single readings can be large or run the other way; tested in A549 cells; also: nearly all actives have a fitted effect of over 35% in size; inactives centre near -10
Vaccinia Venus: inhibitors of vaccinia virus (Venus reporter). Potency, µM (doses to about 36.5 µM), without a hit: at the top dose activity change, negative = inhibition, usual class: inhibitors. AID 720580. Vaccinia virus Venus reporter expression, fluorescence. 330,000 tested, 0.46% active; active means well fitted inhibition curve with a large enough effect; inconclusive means small, poorly fitted or top-dose-only effect; inactive means no such curve, though single readings can be large or run the other way; tested in A549 cells; also: nearly all actives have a fitted effect of over 30% in size; inactives centre near -10
Active calls of the source: *; i = inactive; ? = inconclusive; . = no result given; [ ] = dose if it differs, or a comment. % is scaled to controls: 0 for no effect and ±100 for the full control effect; potency is read from the fitted curve at half-maximal effect.

SMILES	VACV mCherry inh	Vaccinia Venus
COc1ccc(C2=NS(=O)(=O)N(C)C(C(=O)NCc3ccccn3)=C2)cc1	-21%	-3%
Oc1ccc2sc(-c3ccccc3O)c(-c3ccc(OCCN4CCCCC4)cc3)c2c1	-29%	-29%
Cc1cccc(CS(=O)(=O)Cc2ccc(C(=O)NCc3ccccc3)o2)c1	i	-8%
COc1ccc2c(c1)c(=O)oc1c(C)c(OC(C)C(=O)NCC3CCC(C(=O)O)CC3)ccc12 (configuration not stated)	-5%	1%
O=C(NC1CC1)C1=C[C@@H](c2csc3ccccc23)C[C@@H](OCCCCO)O1	-6%	-17%
O=C(COC(=O)CCc1c[nH]c2ccccc12)Nc1ccccc1	-13%	-3%
CC(C)c1cccc(C2=CC(=O)C[C@H](c3ccc(F)cc3)C2)c1	-3%	-9%
O=C1CN(Cc2ccccc2)CC(=O)N1	i	-12%
COc1cccc(CNC(=O)Cn2c(=O)cc(C)c3c(C)nn(C)c32)c1OC	-9%	-6%
NC1=NC(=O)C(CC(=O)c2ccc(Cl)cc2)S1 (configuration not stated)	i	-10%

Reprinted from the part before: seven entries, then new ones.
SMILES	VACV mCherry inh	Vaccinia Venus
COc1ccc2c(c1)c(=O)oc1c(C)c(OC(C)C(=O)NCC3CCC(C(=O)O)CC3)ccc12 (configuration not stated)	-5%	1%
O=C(NC1CC1)C1=C[C@@H](c2csc3ccccc23)C[C@@H](OCCCCO)O1	-6%	-17%
O=C(COC(=O)CCc1c[nH]c2ccccc12)Nc1ccccc1	-13%	-3%
CC(C)c1cccc(C2=CC(=O)C[C@H](c3ccc(F)cc3)C2)c1	-3%	-9%
O=C1CN(Cc2ccccc2)CC(=O)N1	i	-12%
COc1cccc(CNC(=O)Cn2c(=O)cc(C)c3c(C)nn(C)c32)c1OC	-9%	-6%
NC1=NC(=O)C(CC(=O)c2ccc(Cl)cc2)S1 (configuration not stated)	i	-10%
O=C(NCCc1ccccc1)c1ccc(Cn2c(SCc3ccccc3F)nc3cccnc32)cc1	-29%	-25%
C/C(N)=C(/C#N)C(=O)COC(=O)CCC1CCCC1	-16%	-13%
CCCCn1c(-c2ccccc2)nnc1-c1ccccc1	-2%	-19%
CN(c1ccccc1)S(=O)(=O)c1ccc(NC(=O)CC(=O)c2ccccc2)cc1	i	-7%
Cc1nc2ccc(S(=O)(=O)N(C)CC(=O)NCc3ccc4c(c3)OCO4)cc2s1	-5%[1.46 µM]	-14%
CC(=O)OC1c2ccccc2C(=O)N1c1ccccc1C (configuration not stated)	-18%	4%
O=S(=O)(c1ccc(-c2cc(C(F)(F)F)on2)s1)N1CCCC1	-12%	-11%
COC(=O)C[C@H]1CC[C@H](NC(=O)c2ccc(F)cc2)[C@@H](CO)O1	7%	0%
O=C(Nc1nc2ccc(Br)cc2s1)c1ccco1	-14%	-21%
CS(=O)(=O)CCC(C(=O)OCc1ccc(Cl)cc1)N1C(=O)c2ccccc2C1=O (configuration not stated)	-21%	-12%
C=CCN1CCOc2ccc(C)cc2S1(=O)=O	-14%	3%
COc1ccc([C@H]2CC(=O)C=C(/C=C/c3ccc(Cl)cc3)C2)cc1	-16%	?
CCN(CC)CCOc1c(Br)ccc2c1sc1nc3n(c(=O)c12)CCC3	?	?
CCOC(=O)Cc1csc(NC(=O)CSc2ncnc3c2cnn3-c2ccccc2Cl)n1	.	-27%
CCCCCCSc1ccc([C@H]2N[C@@](CC(C)C)(C(=O)OC)[C@H]3C(=O)N(CC)C(=O)[C@@H]23)cc1	?	-15%
COc1ccc(OCc2cccc(C(=O)Nc3ccc(CN4CCCCC4)cc3)c2)cc1	-13%	-14%
COc1ccccc1NC(=O)C[n+]1ccccc1C	-19%	-4%
CC(C)CN(C(=O)COC(=O)CCCc1c[nH]c2ccccc12)c1c(N)n(Cc2ccccc2)c(=O)[nH]c1=O	-4%	-14%
O=C(c1cc(-c2ccc(Cl)c(Cl)c2)on1)N1CCCCCC1	-17%	1%
Nc1ccc(OCc2ccccc2)cc1	15%	-4%
COC(=O)CN1C(=O)C(O)(CC(=O)c2ccccc2)c2ccccc21 (configuration not stated)	.	-12%
Cc1ccc(/C=N/NC(=O)c2nnn(-c3nonc3N)c2CN(C)C)o1	-7%	-12%
CCO[C@H]1OC(C(=O)N2CCCCCCC2)=C[C@@H](C2CCCCC2)[C@@H]1CCCO	i	-20%
CC1=C(C(=O)O)N2C(=O)C(NC(=O)Cc3ccccc3)C2SC1 (configuration not stated)	-10%	-3%
CCN(CC)CC(O)COCCC12CC3CC(CC(C3)C1)C2 (configuration not stated)	-20%	-19%
COc1ccc(CNC(=O)CCCc2nnc3n(CCC(C)C)c(=O)c4sccc4n23)cc1	-4%	-4%
O=C(NN=C1CCCC1)c1cccs1	i	-11%
O=C(NC1CCCCC1)N1CCN(c2ccccc2)CC1	?	-29%
O=[N+]([O-])c1nn(-c2ccc3c(c2)OCCO3)n(O)c1=Nc1ccccc1	-14%	-10%
COc1ccc(-c2csc3ncnc(NCCN4CCOCC4)c23)cc1	.	?
COc1ccc(CNC(=O)Cn2nc([N+](=O)[O-])c(Br)c2C)cc1	-10%	-4%
Cc1ccc(OCC(=O)Nc2cccc(S(=O)(=O)NC3=NCCCCC3)c2)cc1C	-1%	-13%
Cc1cccc(NC(=O)c2ccc3c(O)c(S(=O)(=O)c4ccccc4)c(=O)[nH]c3c2)c1C	-2%	-3%
Cc1ccccc1C(=O)NC1CC2CCCC(C1)N2C(=O)Nc1ccccc1 (configuration not stated)	-13%	-10%
CCOC(=O)c1ccccc1NC1c2ccccc2C(=O)N1c1ccc(C)cn1 (configuration not stated)	11%	-15%
CCCC1=NN(C(=O)CCc2ccccc2O)C(O)(C(F)(F)F)C1 (configuration not stated)	i	-12%
O=C(C(Sc1ccccc1)c1ccccc1)N1CCN(c2ccccc2F)CC1 (configuration not stated)	i	-27%
CCNC(=O)c1c(NC(=O)c2cc(=O)c3ccc(C)c(C)c3o2)sc2c1CCCC2	-12%	-3%
Cc1ccc(C(=O)OC(C)C(=O)NC2CCCCC2C)s1 (configuration not stated)	-24%	-13%
Cc1nc(SCC(=O)c2cc3ccccc3oc2=O)c(C#N)c(-c2ccccc2)c1C(=O)Nc1ccccc1	-15%	-10%
CCCNC(=O)C1(C)CCN(Cc2ccc(-n3ccnc3)cc2)C1 (configuration not stated)	30%[activator]	1%
O=C(CCNC(=O)c1ccc(Br)cc1)NCCCc1ccccc1	?	-24%
CSc1nc(O)c(Cc2ccccc2)c(=O)[nH]1	3%	9%
COc1ccc(CC(=O)Nc2nc3ccc(F)cc3s2)cc1S(=O)(=O)N1CCOCC1	-15%[1.46 µM]	?
CCN(CC)c1nc2n(c(=S)n1)CCS2	-17%	-1%
CCCS(=O)(=O)NC(=O)C1(C)CCN(C(=O)c2cc(F)cc(F)c2)C1 (configuration not stated)	-8%	2%
CC1CCc2c(sc3ncnc(NCCN4CCOCC4)c23)C1 (configuration not stated)	-5%	-17%
COc1ccc(N(CC(=O)Nc2cccnc2)S(=O)(=O)c2ccc(C)cc2)cc1Cl	-10%	-2%
Cc1ccc(S(=O)(=O)N2CCN(C(=O)c3sccc3-c3ccccc3)CC2)cc1	-15%	-9%
CCc1ccc(NC(=O)[C@H](Cc2c[nH]c3ccccc23)NC(=O)[C@@H]2Cc3ccccc3CN2)cc1	5µM*	12%
Remaining list, next part.
SMILES	VACV mCherry inh	Vaccinia Venus
Cc1cccc(C)c1NC(=O)c1cn(-c2ccccc2)nc1-c1ccccc1	-1%	-15%
CCc1ccc(CN(C)C(=O)c2ccc3c(=O)n4c(nc3c2)CCC4)cc1	-2%	-19%
CCCCn1cc(S(=O)(=O)c2ccc(OCC)cc2)c(=O)c2cc(OC)c(OC)cc21	i	-17%
O=C1NC(=O)C(c2ccc(Cl)cc2Cl)N1 (configuration not stated)	i	0%
CCOC(=O)CN1C(=O)COc2ccc(C(C)(C)C)cc21	-16%	-5%
CCOC(=O)C1=C(C)c2ccccc2OC1(C(=O)OCC)c1ccccc1 (configuration not stated)	i	0%
CS(=O)(=O)c1ccc(Cl)c(NC(=O)COC(=O)c2cccc(C#N)c2)c1	2%	-1%
Cc1ccccc1-c1nc(CNC(=O)Nc2ccccc2)c(C)o1	5%	1%
C/C(=N\NC(=O)c1nn(C)c(C)c1Br)c1ccc(NC(=O)c2ccc(C)s2)cc1	i	-10%
O=c1[nH]c2cc([N+](=O)[O-])c(NCCO)c([N+](=O)[O-])c2[nH]1	-20%	-18%

Continued, starting with the last 5 of the part before.
SMILES	VACV mCherry inh	Vaccinia Venus
CCOC(=O)C1=C(C)c2ccccc2OC1(C(=O)OCC)c1ccccc1 (configuration not stated)	i	0%
CS(=O)(=O)c1ccc(Cl)c(NC(=O)COC(=O)c2cccc(C#N)c2)c1	2%	-1%
Cc1ccccc1-c1nc(CNC(=O)Nc2ccccc2)c(C)o1	5%	1%
C/C(=N\NC(=O)c1nn(C)c(C)c1Br)c1ccc(NC(=O)c2ccc(C)s2)cc1	i	-10%
O=c1[nH]c2cc([N+](=O)[O-])c(NCCO)c([N+](=O)[O-])c2[nH]1	-20%	-18%
COC(C[C@H]1O[C@H]1[C@@H](O)[C@@H](C)OCc1ccccc1)OC	i	-5%
CCOc1ccccc1NC(=O)CN1c2ccccc2S(=O)(=O)c2ccccc21	-16%	-8%
Cc1sc(NC(=O)CSC2=NCCS2)nc1-c1ccccc1	-20%	-13%
CCc1ccc(Nc2ncnc3sc4c(c23)CCCC4)cc1	-5%	-13%
CCCCCOC(=O)c1ccc(OC(=O)c2cncc(Br)c2)cc1	i	-3%
O=C(Oc1ccccc1)c1cc(O)c(O)c(O)c1	?	?
Fc1ccc2nc3[nH]c4ccccc4c3nc2c1	-15%	-13%
O=C(c1ccc(Cl)c(Cl)c1)N1CCC(=O)N(C(CO)Cc2ccccc2)CC1 (configuration not stated)	-22%	-11%
O=C(Nc1ccc(C2SCCS2)cc1)c1ccccc1	-11%	-20%
COc1ccc(NC(=O)c2c(C)oc3ccc(O)c(CN4CCN(Cc5ccccc5)CC4)c23)cc1	-14%[7.34 µM]	-12%[7.34 µM]
Cc1nn(CC(=O)NCC(C)c2ccccc2)c(=O)c2cc3ccccc3n12 (configuration not stated)	-2%	-14%
CCCn1nnnc1NCc1ccccc1C	-10%	-11%
COc1cc(/C=C(\NC(C)=O)C(=O)Nc2cccc(O)c2)ccc1OC(C)=O	-9%	-5%
C=CCn1c(C(CCCC)CC(O)COCC(C)C)n[nH]c1=S (configuration not stated)	i	-18%
Cc1ccc(O)c(Nc2nc3ccccc3c3nncn23)c1	-17%	-4%
O=S1(=O)C=C(Sc2nc3cc(Cl)ccc3o2)c2ccccc21	-13%	4%
Cc1nc[nH]c(=O)c1Br	-11%	-12%
CCOC(=O)COn1c2c(c3c4no[n+]([O-])c4ccc31)CCCC2	.	-17%
CC(C)C(=O)Nc1cccc(NC(=O)c2cccc(F)c2)c1	-8%	1%
Cc1c(-c2ccccc2)nc2ccccc2c1C(=O)Oc1ccc([N+](=O)[O-])cc1	.	-7%
Cc1cc(C)c2c(n1)nn1c(C3CC3)cc(C(F)(F)F)nc21	-5%	0%
Cc1ccc(OCc2cc(C(=O)N3CCCC3)no2)cn1	i	-16%
CC(=O)Nc1ccc(S(=O)(=O)NCC2CCC(C(=O)NC3CCCCCC3)CC2)cc1 (configuration not stated)	-2%	-17%
O=C(COC(=O)c1c(F)cccc1F)NCc1cccs1	-9%	3%
CCCCCCC(=O)NNC(=O)c1c(O)c2ccccc2n(CC)c1=O	-17%	-11%
COc1ccc(CCNC(=O)C2CCCN2C(=O)Nc2ccc(F)cc2)cc1OC (configuration not stated)	-9%	5%
O=C1Nc2ccccc2N(C(=O)c2c(F)cccc2F)C1c1nc2ccccc2[nH]1 (configuration not stated)	-6%	2%
CCOC(=O)c1ccc2c(c1)N(Cc1cccc(C(F)(F)F)c1)C(=O)c1ccccc1S2(=O)=O	-7%	0%
CCOC(=O)C1CCCN(C(=O)CCn2nnnc2CN2CCOCC2)C1 (configuration not stated)	i	-7%
CCc1ccc(C2=C(C)C(N3CCC(C(=O)NCCc4ccco4)CC3)=NS2(=O)=O)cc1	-9%[7.34 µM]	-5%[7.34 µM]
O=C(COC(=O)/C=C/c1ccc(Cl)cc1)Nc1ccc2c(c1)OCCO2	i	0%
CC(C)(C)c1ccc(-c2c(C#N)c(N)nc3c2CCCC3)s1	-14%	-8%
CCC(=O)c1ccc(OCCn2cnc3ccccc32)cc1	-18%	-17%
COc1ccc(CN2C(=O)CCC2(C)c2nc3ccccc3[nH]2)cc1 (configuration not stated)	18%	-10%
Cc1nnc(Sc2cc(NCCCO)c([N+](=O)[O-])c3nonc23)s1	i	1%
O=C(O)Cc1ccc(NC(=O)CCN2C(=O)c3ccc([N+](=O)[O-])cc3C2=O)cc1	6%	2%
COc1ccc(N(C(=O)CSCC(=O)Nc2cc(C)on2)C(C(=O)NC2CCCCC2)c2ccc(O)c(O)c2)cc1 (configuration not stated)	-14%	-24%
COc1ccc(/C=C(/NC(=O)c2ccco2)C(=O)N2CCCCC2)cc1	i	-20%
O=C(NC1CCN(Cc2ccccc2)CC1)c1cncc(Br)c1	-10%	-9%
COc1ccccc1NC(=O)C1=C(C)Nc2nc3ccccc3n2C1c1cccc(OC)c1OC (configuration not stated)	-15%	-2%
CCc1nnc(N/N=C/c2ccc(-c3ccc([N+](=O)[O-])cc3)o2)n1N	?	?
Cc1ccccc1NS(=O)(=O)c1ccc(NC(=O)CSCc2ccc(Br)cc2)cc1	-6%	-17%
O=C(N/N=C/c1ccc(N2CCCCC2)o1)c1ccccc1[N+](=O)[O-]	-12%	-24%
O=C(CSCc1ccccc1)NCCc1ccc(F)cc1	i	-15%

Assay outcomes as filed in PubChem.

Compounds as they come; 0.86% or so of the library scored in one or more.
